# From PubChem BioAssay
# KCNQ2 inh: KCNQ2 potassium channel inhibitors, primary screen, cell-based, CHO-K1, FluxOR thallium flux, B-score (AID 2156) | Potassium voltage-gated channel subfamily KQT member 2 (Rattus norvegicus), O88943 | 20 min; stronger effect = lower value; only compounds with negative scores are shown here; some inactives read as strong as hits | B-score at 10 µM | 310,000 tested, 1.1% active;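 active means fluorescence ratio B-score at most minus 3 library SDs, with starting brightness B-score within 2 library SDs, cut at about -5.5 in these data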
# Target sequence (O88943 whole entry, looked up): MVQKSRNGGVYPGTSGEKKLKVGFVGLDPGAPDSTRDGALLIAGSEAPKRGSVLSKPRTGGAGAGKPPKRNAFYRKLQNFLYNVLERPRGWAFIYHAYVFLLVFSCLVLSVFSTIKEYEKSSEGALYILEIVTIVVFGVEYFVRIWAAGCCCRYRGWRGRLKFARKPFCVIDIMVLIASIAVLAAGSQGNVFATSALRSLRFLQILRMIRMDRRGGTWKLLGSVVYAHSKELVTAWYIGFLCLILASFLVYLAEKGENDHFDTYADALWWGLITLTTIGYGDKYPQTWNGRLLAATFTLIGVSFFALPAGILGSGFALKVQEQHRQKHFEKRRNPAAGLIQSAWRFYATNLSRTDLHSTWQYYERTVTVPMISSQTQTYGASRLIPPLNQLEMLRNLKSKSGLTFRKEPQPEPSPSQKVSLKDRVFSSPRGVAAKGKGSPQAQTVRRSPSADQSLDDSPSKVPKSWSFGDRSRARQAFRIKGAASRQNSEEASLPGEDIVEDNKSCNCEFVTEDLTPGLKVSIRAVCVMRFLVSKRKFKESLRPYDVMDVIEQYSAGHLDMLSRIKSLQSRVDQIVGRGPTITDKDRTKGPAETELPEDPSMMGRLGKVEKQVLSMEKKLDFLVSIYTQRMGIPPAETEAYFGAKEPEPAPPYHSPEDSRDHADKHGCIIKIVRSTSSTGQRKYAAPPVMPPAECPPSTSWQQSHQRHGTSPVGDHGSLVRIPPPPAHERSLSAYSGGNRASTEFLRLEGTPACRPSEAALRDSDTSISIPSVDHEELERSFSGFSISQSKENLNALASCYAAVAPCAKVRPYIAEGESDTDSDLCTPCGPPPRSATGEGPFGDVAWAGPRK
# KCNQ2 inh baseline: also measured in KCNQ2 inh; calls as there; B-score; measured here: initial fluorescence intensity artifact check;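 brightness before thallium and not channel activity; 0 = typical well and far values either way flag optical interference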
# * = called active by the depositor; i = inactive. An excerpt; count on the stated rates, not on these rows.
SMILES,KCNQ2 inh,KCNQ2 inh baseline
COC(=O)CC1(Cc2ccccc2)C(=O)NC(=O)NC1=O,i,0.01
CC1CCN(C(=O)c2ccc(N3CC4CC(C3)c3cccc(=O)n3C4)c([N+](=O)[O-])c2)CC1 (stereo not given),i,0.58
COc1ccccc1N1CCN(C2CCCN(C(=O)COc3ccccc3Cl)C2)CC1 (stereo not given),i,-0.04
COC(=O)C1=C(c2cc3ccccc3s2)C[C@@H]2CC[C@H]1N2C(=O)N1CCCC1,i,0.17
Cc1cc(OCC(=O)N2C[C@H]3C[C@@H](C2)c2cccc(=O)n2C3)c2c(C)cc(=O)oc2c1,i,-0.39
C/C=C1/CN2C3CC1C(CO)(C(=O)OC)C2Cc1c3n(C)c2ccccc12 (stereo not given),i,-0.06
Cc1cc(OC(=O)c2ccco2)c2c3c(c(=O)oc2c1)CCC3,i,1.5
Cn1cccc1/C=C1/C(=O)NC(=S)N(Cc2ccc(F)cc2)C1=O,i,-1.1
CCC(C)NC(=O)c1c(N)n(CC2CCCO2)c2nc3ccccc3nc12 (stereo not given),i,-1.8
Cc1ccc(-c2nc3ccccc3c(=O)n2-c2ccncc2)cc1,i,0.61
Cn1cnnc1Sc1cc(N2CCNCC2)ccc1[N+](=O)[O-],i,0.84
Cc1ccc(C2C(=O)NC(=O)NC2=O)cc1,i,0.69
O=C(c1ccc(Cl)cc1)C1CCCN(Cc2ccon2)C1 (stereo not given),i,-1.5
CCCCN1C(=O)NC(=O)C2(Cc3c(nc4ccccn4c3=O)N3CCc4ccccc4C32)C1=O (stereo not given),i,-1.5
O=C(Nc1ccc(Br)cc1)c1nn(C23CC4CC(CC(C4)C2)C3)cc1Br,i,-1.2
C=CCn1c(=O)c(C=Nc2c(OC)cccc2[N+](=O)[O-])c(O)n(CCCC)c1=O,i,-2.4
CCOC(=O)c1c(-c2ccccc2)oc2ccc(OC(=O)N(C)C)cc12,i,-1.1
c1cc2c(cc1[C@H]1OC[C@H]3[C@@H]1CO[C@@H]3c1ccc3c(c1)OCO3)OCO2,i,0.13
COc1ccccc1CN1CCN(C(=O)COc2cccc(C)c2)CC1,i,0.13
CCN(CC)c1ccc(/C=C2\C(=O)NC(=S)N(c3ccc(OC)cc3OC)C2=O)o1,i,16
O=C(Nc1ccc(OC(=O)N2CCCC2)cc1)N1CCOCC1,i,-1.5
COc1ccc(CCNC(=O)c2c(N)n(CCN3CCOCC3)c3nc4ccccc4nc23)cc1OC,i,-1.9
CCOc1ccc(-c2c(C)n(-c3ccc(OCC)cc3)c3[n+]2CCCCC3)cc1,i,-2.1
CCCCc1nc2ccccc2c(=O)n1-c1ccccc1[N+](=O)[O-],i,-1.4
O=C(CN1CC=C(c2ccccc2)CC1)Nc1c(Cl)cccc1Cl,i,3.3

# The results go on.
SMILES,KCNQ2 inh,KCNQ2 inh baseline
CCn1c(O)c(/C=N/NC(=O)c2ccncc2)c(=O)[nH]c1=S,i,1.2
CC1(CCl)CN1S(=O)(=O)c1ccccc1 (stereo not given),i,1.4
O=C(CN1CCN(CCO)CC1)Nc1ccc(Cl)cc1C(=O)c1ccccc1,i,2
C/C(=N\N1CCCCCC1)c1c(O)n(C2CCCCC2)c(=O)[nH]c1=O,i,-0.08
Cc1ccc(C(=O)c2cc(Br)ccc2N)cc1,i,1.9
O=C(CN1C2CCC1CC(O)(c1cccnc1)C2)Nc1ccc2c(c1)OCO2 (stereo not given),i,1.6
Cc1nccn1Cc1ccc(Cl)nc1,i,0.59
Cc1ccc2c(c1)C(c1ccccc1)=NCC(=O)N2C,i,1.1
CC1CCCC(NC(=O)CNC(=S)N2CC3CC(C2)c2cccc(=O)n2C3)C1C (stereo not given),i,-0.35
Cn1c(O)c(C=NCCN2CCN(C(=O)Nc3ccccc3)CC2)c(=O)n(C)c1=O,i,-0.61
Cc1ccc(C(O)(c2ccc(C)c(C)c2)C2CN3CCC2CC3)cc1C (stereo not given),i,-0.47
COc1cc(/C=C/c2nc3ccccc3c(=O)n2-c2ccc(O)cc2)ccc1O,i,0.59
Nc1ccncc1,i,0.89
COc1ccc(CN2C(=O)CC(=O)NC2=O)cc1,i,1.4
O=[N+]([O-])c1ccc(N2CCCCCC2)c2nonc12,i,16
COc1ccc(CNCCc2ccc3c(c2)OCO3)cc1Br,i,-0.13
CCOC(=O)C(O)(c1ccc(NC(=S)NC(=O)c2ccc(Cl)cc2Cl)c(C)c1)C(F)(F)F (stereo not given),i,0.55
COCCOC(=O)c1c(N)n(Cc2ccccc2)c2nc3ccccc3nc12,i,0.04
Cc1cc(C)n(-c2ccc(NN=C(C#N)C#N)cc2)n1,i,-0.78
CNC(=S)N/N=C1\C2CN3CCN(C2)CC1(c1ccccc1)C3,i,0.05
CN(C)CCSCc1nnc2n1-c1ccc(Cl)cc1C(c1ccccc1Cl)=NC2,i,0.66
Fc1ccccc1CCNCc1cccc(Cl)c1Cl,i,-0.35
Cc1nc2ccc(N3CCN(C)CC3)cc2nc1C,i,2.5
CCN1CCN(C(=O)COc2ccc(S(=O)(=O)NC(C)C)cc2)CC1,i,2.1
O=C1NC(=O)C(CCc2ccncc2)(CCc2ccncc2)C(=O)N1C1CCCCC1,i,-0.02

# A draw from above in order of length of the SMILES, descending.
SMILES,KCNQ2 inh,KCNQ2 inh baseline
CCOC(=O)C(O)(c1ccc(NC(=S)NC(=O)c2ccc(Cl)cc2Cl)c(C)c1)C(F)(F)F (stereo not given),i,0.55
O=C1NC(=O)C(CCc2ccncc2)(CCc2ccncc2)C(=O)N1C1CCCCC1,i,-0.02
COc1cc(/C=C/c2nc3ccccc3c(=O)n2-c2ccc(O)cc2)ccc1O,i,0.59
O=C(CN1C2CCC1CC(O)(c1cccnc1)C2)Nc1ccc2c(c1)OCO2 (stereo not given),i,1.6
O=C(CN1CCN(CCO)CC1)Nc1ccc(Cl)cc1C(=O)c1ccccc1,i,2
Cc1ccc(C(O)(c2ccc(C)c(C)c2)C2CN3CCC2CC3)cc1C (stereo not given),i,-0.47
CCn1c(O)c(/C=N/NC(=O)c2ccncc2)c(=O)[nH]c1=S,i,1.2
O=[N+]([O-])c1ccc(N2CCCCCC2)c2nonc12,i,16
Cc1ccc2c(c1)C(c1ccccc1)=NCC(=O)N2C,i,1.1
COc1ccc(CNCCc2ccc3c(c2)OCO3)cc1Br,i,-0.13
COc1ccc(CN2C(=O)CC(=O)NC2=O)cc1,i,1.4
Cc1ccc(C(=O)c2cc(Br)ccc2N)cc1,i,1.9
CC1(CCl)CN1S(=O)(=O)c1ccccc1 (stereo not given),i,1.4
Fc1ccccc1CCNCc1cccc(Cl)c1Cl,i,-0.35
Cc1nccn1Cc1ccc(Cl)nc1,i,0.59

# (more compounds)
SMILES,KCNQ2 inh,KCNQ2 inh baseline
COc1ccc2c(CN3CC=C(c4ccccc4)CC3)cc(=O)oc2c1,i,2.3
CC(C)OP(=O)(OC(C)C)C(O)c1ccccc1F (stereo not given),i,-1.7
Cc1ccc(-c2cc(-c3ccc(C)cc3)[n+](-c3ccccc3)c(-c3ccc(C)cc3)c2)cc1,-13*,0.91*
CCOC(=O)C1SC2(C(F)F)CC1(O)c1c(c(OC)c3occc3c1OC)O2 (stereo not given),i,-1.8
O=C1/C(=C/c2cc([N+](=O)[O-])ccc2Cl)N2CCC1CC2,i,-1.1
CC12CC[C@H]3[C@@H](CCC4(O)C[C@H](O)CCC34/C=N/NC(=O)c3ccccc3Cl)C1(O)CCC2C1=CC(=O)OC1 (stereo not given in full),i,-0.55
CCN(CC)c1ccc(N=Cc2c(O)n(-c3ccccc3C)c(=O)[nH]c2=O)cc1,i,2.7
C=CCn1c(O)c(C(C)=Nc2cccc(C(=O)O)c2)c(=O)[nH]c1=O,i,-0.03
CCN1C(=O)C(=Cc2ccc(N3CCOCC3)o2)C(=O)N(CC)C1=S,i,0.87
O=C(COc1ccccc1)N1CCN(C/C=C/c2ccccc2)CC1,i,-0.54
CCCOc1ccc(C(C)=O)cc1Cc1c(O)[nH]c(=S)[nH]c1=O,i,2
O=c1[nH]c(=O)n(CCc2ccccc2)c(O)c1C=NCCCn1ccnc1,i,1.5
Clc1ccc(CO/N=C(\Cn2ccnc2)c2ccc(Cl)cc2Cl)c(Cl)c1,-6*,0.15*
O=C(CCN1CCCCC1)Nc1ccc(Br)cc1C(=O)c1ccccc1,i,-0.21
COc1cccc(C(=O)C2CCCN(Cc3cnn(C(C)C)c3)C2)c1 (stereo not given),i,-1
Cc1cc(C(=O)CS(=O)(=O)c2ccc(F)cc2)cc(C)c1OC(=O)N(C)C,i,1.2
O=S(=O)(c1ccc(Cl)cc1)N1CN2CCN(C2)C1,i,3
COc1ccccc1Sc1ccccc1CC(C)N (stereo not given),i,1.6
CC1CN=C(NCc2ccncc2)S1 (stereo not given),i,2.3
CC(=NCCc1ccccc1)c1c(O)[nH]c(=O)[nH]c1=O,i,-2.5
CN(C)C(=O)Nc1cccc(OC(=O)N(C)C)c1,i,-0.01
CC(=NCc1ccco1)c1c(O)n(C)c(=O)n(C)c1=O,i,1.4
COc1ccccc1OCC#CCN1CCOCC1,i,-0.4
CCCCCn1cc(C(=O)C(=O)N2CCOCC2)c2ccccc21,i,0.07
O=C1NC(=O)C2(Cc3ccccc3N3CCCC32)C(=O)N1c1ccccc1 (stereo not given),i,2.7

# Continued:
SMILES,KCNQ2 inh,KCNQ2 inh baseline
CNCC(O)c1cc(OCc2ccccc2)c(OCc2ccccc2)cc1F (stereo not given),i,-0.65
CCOC(=O)c1c(NC(=O)C(c2ccccc2)c2ccccc2)sc2c1C1CCN2CC1,-7.2*,0.05*
O=c1[nH]c(O)c(C=Nc2ccccc2[N+](=O)[O-])c(=O)[nH]1,i,-1.5
Cc1c(C=O)c2ccccc2n1Cc1ccccc1F,i,-0.43
O=C(Cc1ccc(Cl)cc1)NCCN1CCN(C(=O)Cc2ccc(Cl)cc2)CC1,i,1.6
Oc1cc(Cl)ccc1Oc1ccc(Cl)cc1Cl,i,0.04
Cc1ccc(N2C(=O)CC(=O)NC2=O)cc1Cl,i,0.19
Cc1cc(C)c(-n2c(O)c(/C=N/NC(=O)c3ccncc3)c(=O)[nH]c2=O)c(C)c1,i,0.89
C=CCn1c(O)c(C=NCCN2CCOCC2)c(=O)[nH]c1=S,i,0.01
CCCCC(=O)N/N=C/c1c(O)n(CCc2ccc(OC)c(OC)c2)c(=O)[nH]c1=O,i,0.83
CCCn1ncc(C(=O)O)c1C,i,-0.43
Cc1ccc(C)c(OCC(=O)N2CCCN(C)CC2)c1,i,-0.42
CP(=O)(Nc1ccc(Cl)cc1)c1nc2c(s1)CCCC2 (stereo not given),i,0.22
CC1(O)C[C@]2(C)N(O)C3CCCC[C@@H]3N2O1 (stereo not given in full),i,0.21
CCCCC(=O)N/N=C/c1c(O)n(CCCC)c(=S)[nH]c1=O,i,0.89
O=C(CF)NC(NC(=S)Nc1cccc([N+](=O)[O-])c1)C(Cl)(Cl)Cl (stereo not given),i,1.4
CCn1cc(C(=O)NCc2ccccc2)c2ccccc21,i,-0.81
CN1CCC2(CC1)N=C(c1ccc(F)cc1)C(=S)N2,i,0.4
C=CCc1cc(C=C2C(=O)NC(=O)NC2=O)cc(OC)c1OCc1ccc(C(=O)O)cc1,i,0.77
O=C(NC(=S)N1C[C@H]2C[C@H](C1)c1cccc(=O)n1C2)c1ccc(F)cc1,i,-1.6
O=C(CCN1CCCCC1)NCC(=O)Nc1ccc(Br)cc1C(=O)c1ccccc1,i,-1.4
O=C(O)C1(c2ccc(Cl)cc2)CCC1,i,0.09
C#CCN1C(=O)C2(C(C#N)=C(N)OC(C)=C2C(=O)OCc2ccccc2)c2ccccc21 (stereo not given),i,-0.88
COc1ccc(-c2nc3ccccc3c(=O)o2)cc1,i,1.7
Fc1ccccc1CNCCc1ccc2c(c1)OCO2,i,0.67

# (more compounds)
SMILES,KCNQ2 inh,KCNQ2 inh baseline
O=C(NCc1cccnc1)Nc1ccc([N+](=O)[O-])cc1,i,-0.55
Cc1ccc(-n2c(O)c(C=NCCN3CCNCC3)c(=O)[nH]c2=S)cc1,i,0.9
O=[N+]([O-])c1ccc(NC2CCN(Cc3ccccc3)CC2)c2ccncc12,i,0.07
COCc1cc(OC(=O)N(C)C)nc(-c2ccc(C)c(Cl)c2)n1,i,0.24
CC12CCC3C(CC=C4CC(O)CCC43C)C1C/C(=C\N1CCCC1)C2=O (stereo not given),i,0.71
COc1ccc(N2CC2c2ccncc2)cc1 (stereo not given),i,-0.02
COC(=O)c1ccc(N=C(c2ccccc2)c2c(O)n(C)c(=O)n(C)c2=O)cc1,i,-2.2
NP(=O)(OCCCCc1ccccc1)Oc1ccccc1Cl (stereo not given),i,0.61
Cc1nc2cc(C(=O)N3CCC4(CC3)OCCO4)ccc2n1-c1cccc(F)c1,i,0.85
CC(Cc1ccccc1)NC(=O)CCCCC(=O)NC(C)Cc1ccccc1 (stereo not given),i,2.3
O=c1[nH]c(=S)n(CCC2=CCCCC2)c(O)c1/C=N/Nc1ccccc1,i,0.28
Cc1cccc(OP(=O)(Oc2cccc(C)c2)OC(c2ccccc2)C(F)(F)F)c1 (stereo not given),i,0.46
Cc1cccc(N2C(=O)/C(=C/c3ccc(N4CCN(C)CC4)o3)C(=O)NC2=S)c1C,i,5.6
CC1(C(O)(C#CCN2CCCCC2)c2ccccc2)CCCC1 (stereo not given),i,1.6
Cc1ccc(OP(=O)(O)Oc2ccc(C)cc2)cc1,i,0.14
COC(=O)C1=C(c2cccc(OC)c2OC)C[C@@H]2CC[C@H]1N2C(=O)N1CCCC1,i,-0.57
Cc1cc(OC(C)C(=O)NCc2ccncc2)c2c3c(c(=O)oc2c1)CCC3 (stereo not given),i,0.11
CCn1c(O)c(/C=N/NC(=O)c2ccccc2)c(=O)n(CC)c1=S,i,-0.78
Fc1ccc(C2=CCN(C(c3cccs3)c3nnnn3CCc3ccccc3)CC2)cc1 (stereo not given),i,1.1
CN(C)CC1Oc2ccccc2OC1(O)c1ccccc1 (stereo not given),-8.6*,0.45*
O=C1C2CCCN2C(c2cccc(Cl)c2)N1c1ccccn1 (stereo not given),i,0.39
Cn1c2ccccc2c2cnn(CC(=O)N3CCC4(CC3)OCCO4)c(=O)c21,i,-1.2
